Compound activity from PubChem BioAssay.
Vaccinia mCherry = vaccinia inhibition (mCherry reporter) | Vaccinia virus mCherry reporter infection, fluorescence; about a quarter of the inactives have no number | Potency, µM (titrated, usually from 36.5 µM), for the others: at the top dose activity change, negative = inhibition, usual class: inhibitors | hit rate 0.63% among 310,000 | AID 720579; active = well fitted inhibition curve with a large enough effect; inconclusive = small, poorly fitted or top-dose-only effect; inactive = no such curve, though single readings can be large or run the other way; tested in A549 cells; note: nearly all actives have a fitted effect of over 35% in size; inactives centre near -10
Vaccinia Venus = inhibitors of vaccinia virus (Venus reporter) | AID 720580 | Potency, µM (series often up to 36.5 µM), inactives show top-dose activity change, negative = inhibition, most hits filed as inhibitors | Vaccinia virus Venus reporter expression, fluorescence | hit rate 0.46% among 330,000; active means well fitted inhibition curve with a large enough effect; inconclusive means small, poorly fitted or top-dose-only effect; inactive means no such curve, though single readings can be large or run the other way; tested in A549 cells; note: nearly all actives have a fitted effect of over 30% in size; inactives centre near -10
Numbers without * were called inactive; i = inactive; u = inconclusive; x = not tested or not shown; & = joins results of further samples; [ ] = dose if it differs, or a comment. % is set by controls: 0 for no effect and ±100 for the full control effect; potency is the fitted concentration of half-maximal effect.

SMILES	Vaccinia mCherry	Vaccinia Venus
Cc1ccc(CN(C(=O)COc2ccc(Cl)cc2C)C2CCS(=O)(=O)C2)o1 (stereo not given)	-5%	2%
C=CCNS(=O)(=O)c1cc(S(=O)(=O)NCC=C)c(OC)cc1OC	0%	-5%
COc1cccc(NC(=O)CSC2=Nc3ccccc3C3=NC(CCC(=O)NC4CCCCC4)C(=O)N23)c1 (stereo not given)	-9%	-12%
CC(=O)Nc1ccc(C(=O)OCC(=O)Nc2ccc(N3CCOCC3)cc2)cc1	-4%	-7%
COc1ccc(COc2cccc3ccc(C)nc23)cc1F	-3%	-18%
CC(=O)OCC(=O)[C@@]1(O)CC[C@H]2[C@@H]3CCC4=CC(=O)C=C[C@]4(C)[C@H]3[C@@H](O)C[C@@]21C	-8%	-9%&-5%
Cc1ccccc1-n1cnnc1SCC(=O)N1CCN(c2ccccc2)CC1	x	-14%
Cc1c(NC(=O)c2cc(-c3cccc(Cl)c3)on2)c(=O)n(-c2ccccc2)n1C	-19%&-16%	3%&-5%
COc1ccc(S(=O)(=O)N2CCC(O)(c3ccc4c(c3)OCO4)CC2)cc1	i	-5%
CCN(CC)C(=O)C1=C(C)N(CCC2=CCCCC2)C(=O)C(CC(=O)NCCCN(C)C)C1 (stereo not given)	i	-6%
Cc1ccc(C(=O)N/C(=C/c2cccc([N+](=O)[O-])c2)C(=O)NC(C)C)cc1	-14%	-9%
COc1ccc(N(CC(=O)NC2CCCC2)C(=O)c2ccc(C)s2)cc1OC	-5%	-4%
O=C(O)c1ccc(N2C(=O)c3cccc4c(C(=O)O)ccc(c34)C2=O)cc1	i	-6%
Cc1ccc(C)n1-c1nnc(N2CCC(C(=O)N3CCN(C)CC3)CC2)s1	-3%	-9%
Cc1ccc(Cl)cc1NC(=O)Cn1cc(S(=O)(=O)Cc2ccccc2Cl)c2ccccc21	-30%	-30%
COc1cc2oc3ccc(C#Cc4ccccn4)cc3c(=O)c2cc1OC	i	-19%
Cn1nnc2cc(NC(=O)N3CC4(C)CC3CC(C)(C)C4)ccc21 (stereo not given)	i	-10%
Oc1c(C(c2ccccc2F)N2CCC3(CC2)OCCO3)sc2nc(-c3ccco3)nn12 (stereo not given)	-5%	-3%
O=C(NCc1cccs1)C1CCCN(S(=O)(=O)c2cccc3cccnc23)C1 (stereo not given)	-5%	-5%
Cc1cccc(C(=O)N/N=C/c2ccccn2)c1	u	-27%
COc1ccc(C(=O)OCc2c(-c3ccccc3)ncc3ccccc23)cc1	i	-26%
Cc1ccc(N2CCN(C(=O)c3ccccc3NC(=O)C3CCCCC3C(=O)O)CC2)cc1 (stereo not given)	-13%	-9%
ClC1(CNc2ccccc2)CCN(Cc2ccccc2)CC1	u	5%
Cc1ccc(NC(=O)CSc2nnc([C@@H]3CCCN3C(=O)OC(C)(C)C)o2)c(C)c1	x	-8%
S=C(NCC1CCCO1)N1CCN(Cc2ccccc2)CC1 (stereo not given)	-11%	3%
CCCc1c(C(=O)OCC)[nH]c2c1C(=O)CCC2	-23%	-19%
O=C(Cc1ccsc1)NNC(=O)c1ccc(F)cc1	-15%	-26%
COC(=O)c1ccccc1NC(=O)N[C@@H](C)C(=O)OC	-12%	-2%
COCCNC(=O)CSc1nnc(-c2ccccc2)c(-c2ccccc2)n1	i	-8%
O=[N+]([O-])c1ccc(CN2CCCCCC2)cc1	i	6%
Cc1csc(=O)n1CC(=O)OCC(=O)c1ccc(Br)cc1	0%	-12%
CSCCC(NS(=O)(=O)c1cccs1)C(=O)NCc1cccs1 (stereo not given)	x	-26%
CCc1ccc(N2C(=O)CN(Cc3ccc(OC)c(OC)c3)C2=S)cc1	-21%	-23%
Cc1noc(C)c1-c1nnc(-c2ccc(OC(F)(F)F)cc2)o1	i	-7%
Cc1cccc(NS(=O)(=O)c2cc(C(=O)N3CCN(C)CC3)ccc2C)c1	-16%	-12%
Oc1ccc2c3c1O[C@H]1[C@@H](O)CC[C@@]4(O)C(C2)N(CC2CCC2)CCC314 (stereo not given in full)	-3%	-15%
O=C(CSc1nnnn1C1CCCC1)c1ccc2c(c1)OCCO2	-13%	-4%
O=C(OCC(=O)N1c2ccccc2Sc2ccccc21)c1ccc[n+]([O-])c1	u	-7%
Cc1ccc(NC(=O)CSc2nc(=O)n(Cc3ccco3)c3c2CCC3)cc1F	-22%	-18%
Cc1c(C(=O)NN2CCOCC2)oc2ccccc12	i	-15%
CCN(CC)c1ccc(S(=O)(=O)N2CCOCC2)cc1NC(=O)CSc1cccc[n+]1[O-]	i	-5%
CCOCc1nc2nc(Cl)c(Cl)nc2[nH]1	-11%	7%
CC(C)Oc1cccc(NC(=O)C2(C)CCN2C(C)C)c1 (stereo not given)	56%[activator]	6%
C=CCn1c(SCC(=O)Nc2ccc(OC)cc2)nc2c([nH]c3ccccc32)c1=O	-2%	-1%
CN(C)S(=O)(=O)c1ccc(C(=O)NCCN2C(=O)S/C(=C\c3cccnc3)C2=O)cc1	-2%	-4%
CN(CCOc1ccc(F)cc1)Cc1ccccc1	i	-16%
CCc1cc(=O)oc2c(C)c(O[C@@H]3O[C@H](CO)[C@@H](O)[C@H](O)[C@H]3O)ccc12	-27%	-7%
COC(=O)C1(S(=O)(=O)c2cc(Br)cc3c2N(C(C)=O)CC3)CC1	x	-23%
Cc1ccc(NC(=O)Nc2cnc3ccccc3c2)cc1	-3%	5%
Cc1ccc2cc(C)c(Sc3nnnn3-c3ccccc3)nc2c1	i	-14%
Cc1cccc(N2CCN(C(=O)CCNS(=O)(=O)c3cccs3)CC2C)c1 (stereo not given)	-7%	-12%
COc1cccc(OC)c1OCCN1CCC(C(=O)NC(c2ccccc2)c2ncccc2C)CC1 (stereo not given)	10%	-8%
COc1cccc(-n2ccnc2SCC(=O)Nc2ccccc2F)c1	-4%	-8%
COc1ccc(C(=O)Cc2ccc3c(c2)OCO3)c(O)c1	-9%	0%
c1ccc2c(-n3ccnc3)nc(-c3ccoc3)nc2c1	-24%	u
CCC(c1nnc(SCC(=O)Nc2cccnc2Cl)n1-c1ccccc1)N(C)C (stereo not given)	-17%	-7%
O=C1CC(c2c(F)cccc2Cl)C(n2cncn2)C(O)=C1C1NCCc2ccccc21 (stereo not given)	i	-1%
COc1ccc(CCn2nnnc2C(C(C)C)N2CCC(C(N)=O)CC2)cc1OC (stereo not given)	-6%	-7%
CCCc1nc(SCC(=O)N2CCC(C)CC2)c2c(=O)n(C)c(=O)n(C)c2n1	i	-10%
COc1ccc(Cl)cc1N(CC(=O)N1CCCC1)S(=O)(=O)c1ccc(C)cc1	i	-6%
Additional records.
SMILES	Vaccinia mCherry	Vaccinia Venus
O=C(CSc1nccn1Cc1ccccc1)Nc1nccs1	i[1.46 µM]	-14%
CCCCN(C(=O)CSCC(=O)Nc1ccc(OC)cc1)c1c(N)n(CCC)c(=O)[nH]c1=O	-2%	0%
CC(C)c1cc(C(=O)NC(C)c2ccccc2)no1 (stereo not given)	-4%	7%
COc1ccc(Br)cc1CNC(=O)CCSCc1ccc(Cl)cc1	-11%	-4%
Cn1c(-c2ccccc2)cnc1SCC(=O)N1CCCCC1	x	-30%
CC(=O)Nc1cc(-c2ccc(Cl)cc2)nn1-c1ccccc1	u	-28%
O=C(COc1ccc(S(=O)(=O)N2CCCCC2)cc1)N1CCOCC1	-18%	-8%
COc1cccc(NC(=O)c2ccc3nc(Cc4ccccc4)oc3c2)c1	-13%	-18%
CCOC(=O)/C(C#N)=C1/C=C(C)c2ccccc2N1	-19%	-20%
COc1ccc(C2(CNC(=O)CCC(=O)O)CCCC2)cc1	x	-8%
O=C(Nc1cccc(Cl)c1Cl)C1CCCC1	-1%	-8%
COc1ccc(C2=NN3C(C2)c2ccccc2OC32C(=O)N(C)c3ccccc32)cc1 (stereo not given)	x	-8%
COc1cc(NC(=O)c2nn(-c3ccc(F)cc3)c(=O)n(C)c2=O)cc(OC)c1OC	-10%	-6%
CC(=O)c1sc(N/N=C2\CC3CC2C(C)C3(C)C)nc1C (stereo not given)	u	0%
CCOC(=O)c1sc(NC(=O)c2nc3ncccn3n2)c(C(=O)OC(C)C)c1C	-7%	-10%

Single records (already shown).
O=C(COc1ccc(S(=O)(=O)N2CCCCC2)cc1)N1CCOCC1 is listed with Vaccinia mCherry = -18%; Vaccinia Venus = -8%
COc1cc(NC(=O)c2nn(-c3ccc(F)cc3)c(=O)n(C)c2=O)cc(OC)c1OC is listed with Vaccinia mCherry = -10%; Vaccinia Venus = -6%

(more compounds)
SMILES	Vaccinia mCherry	Vaccinia Venus
Cc1ccc(OCC(=O)NCCNC(=O)c2ccncc2)cc1C	-11%	1%
N#Cc1ccccc1C[C@H](N)C(=O)NC[C@H]1O[C@@H](n2ccc(N)nc2=O)[C@H](O)[C@@H]1O	-4%	-13%
COC(=O)C1(C(C[N+](=O)[O-])c2ccc(C)cc2)C(=O)NCC1c1ccco1 (stereo not given)	-4%	-15%
O=C(Nc1ccn(CCCN2CCN(c3ccccc3)CC2)c(=O)n1)OCc1ccccc1	-28%	u
CCc1ccc(CNc2ncnc3c2nc2n3CCCC2)cc1	-14%	-17%
CCOc1ccc(CN(CCc2ccc3c(c2)OCO3)Cc2cccc(OC)c2)cc1	-10%	0%
COc1ccc2sc(N(CCCN(C)C)C(=O)c3ccc(S(=O)(=O)N4CCc5ccccc5C4)cc3)nc2c1	u	11µM*
O=C(COC(=O)C1CCC1)Nc1cccc(Cl)c1	i	-4%
CC(OC(=O)C1CC1C)C(=O)Nc1ccc(Cl)cn1 (stereo not given)	-11%	-9%
CCn1c(=O)c(C(=O)Nc2cc(OC)c(OC)c(OC)c2)nc2ccccc21	-8%	-1%
Cc1cccnc1NC(N)=S	-4%	-8%
CCC1CN(CCNC(=O)c2ccnc(Cl)c2)Cc2cc(OC)ccc2O1 (stereo not given)	-6%	-4%
Cc1ccc(NC(=O)CSCC(=O)N(C)Cc2c(F)cccc2Cl)cc1	-15%	u
COc1ccc(CNc2ncnc3onc(C)c23)cc1	-11%[7.34 µM]	-4%[7.34 µM]
O=C(N=Nc1c(O)[nH]c2ccccc12)c1cccs1	i	-20%
O=c1[nH]cc(S(=O)(=O)N2CCN(c3ccc(F)cc3)CC2)c(=O)[nH]1	i	-3%
COc1ccc(N(CC(=O)Nc2cccc(C)c2C)S(=O)(=O)c2c(C)[nH]c(=O)[nH]c2=O)cc1	-7%	-8%
COc1cc(C)c(C(=O)CSc2nnc(CNC(=O)c3ccco3)n2C)cc1C	-12%	7%
COc1ccc(C(CNC(=O)CN2C(=O)NC3(CCCC3)C2=O)N(C)C)cc1 (stereo not given)	-5%	-13%
O=C1CCCN1c1ccc(Br)cc1	x	-14%
C=CCN1C(=O)C2(C(C(=O)OC)=C(N)Oc3c2c(=O)oc2ccccc32)c2ccccc21 (stereo not given)	-14%	-6%
O=C(/C=C/NCc1cccnc1)C(F)(F)C(F)(F)F	i	-6%
O=[N+]([O-])c1ccc(/C=N/n2c(-c3ccccc3)n[nH]c2=S)cc1	-3%	-22%
Cc1ccc(Cc2c(-c3ccc(C#N)cc3)nc3c4ccccc4ccn23)cc1	5%	5%
Cc1cc2c(cc(C(=O)N3CCC(C(=O)N4CCCC4)CC3)n2Cc2c(F)cccc2Cl)o1	-19%	-10%
CN1OC[C@@H]2CN(S(=O)(=O)c3cccc4ccccc34)[C@H](c3ccc(-c4ccccc4)cc3)C[C@@H]21	i	-27%
CCCC(=O)Nc1nc2c(OC)ccc(OC)c2s1	0%	-4%
O=C(c1cnn2c1NC(c1ccco1)CC2C(F)(F)F)N1CCN(c2cccc(Cl)c2)CC1 (stereo not given)	x	u
CCN(CC(=O)Nc1ccc2c(c1)OCCO2)C(=O)C1CCCCC1	i	4%
Cc1ccc(CCNC(=O)c2ccc(CSCc3ccccc3C)o2)cc1	-23%	-6%
CCOC(=O)N1CCC(Nc2cccc(SC)c2)CC1	i	-11%
CC1(C(=O)NS(=O)(=O)c2ccc(Cl)s2)CCN1C(=O)c1ccccc1CCc1ccccc1 (stereo not given)	32%[activator]	-4%
COCCCNC(=O)c1[nH]c2cc(OC)ccc2c1Sc1ccc(C)cc1	-19%	-5%
COc1ccccc1NC(=O)CN1CCN(c2ccccc2F)CC1	x	-20%

Entries above containing fluorine, in the order listed:
SMILES	Vaccinia mCherry	Vaccinia Venus
COc1ccc(COc2cccc3ccc(C)nc23)cc1F	-3%	-18%
Oc1c(C(c2ccccc2F)N2CCC3(CC2)OCCO3)sc2nc(-c3ccco3)nn12 (stereo not given)	-5%	-3%
O=C(Cc1ccsc1)NNC(=O)c1ccc(F)cc1	-15%	-26%
Cc1noc(C)c1-c1nnc(-c2ccc(OC(F)(F)F)cc2)o1	i	-7%
Cc1ccc(NC(=O)CSc2nc(=O)n(Cc3ccco3)c3c2CCC3)cc1F	-22%	-18%
CN(CCOc1ccc(F)cc1)Cc1ccccc1	i	-16%
COc1cccc(-n2ccnc2SCC(=O)Nc2ccccc2F)c1	-4%	-8%
O=C1CC(c2c(F)cccc2Cl)C(n2cncn2)C(O)=C1C1NCCc2ccccc21 (stereo not given)	i	-1%
COc1cc(NC(=O)c2nn(-c3ccc(F)cc3)c(=O)n(C)c2=O)cc(OC)c1OC	-10%	-6%
Cc1ccc(NC(=O)CSCC(=O)N(C)Cc2c(F)cccc2Cl)cc1	-15%	u
O=c1[nH]cc(S(=O)(=O)N2CCN(c3ccc(F)cc3)CC2)c(=O)[nH]1	i	-3%
O=C(/C=C/NCc1cccnc1)C(F)(F)C(F)(F)F	i	-6%
Cc1cc2c(cc(C(=O)N3CCC(C(=O)N4CCCC4)CC3)n2Cc2c(F)cccc2Cl)o1	-19%	-10%
O=C(c1cnn2c1NC(c1ccco1)CC2C(F)(F)F)N1CCN(c2cccc(Cl)c2)CC1 (stereo not given)	x	u
COc1ccccc1NC(=O)CN1CCN(c2ccccc2F)CC1	x	-20%
